StopGo RLuc = Primary qHTS Assay for Foot and Mouth Disease Virus Antivirals against NCGC Sytravon and CBC Compound Libraries: Renilla Luciferase Signal; Potency, µM (doses to about 57.5 µM), without a hit: at the highest dose signal change, negative = less light; 120,000 tested, 0.32% active; HEK cells with a luciferase reporter of 2A StopGo recoding; active means well fitted falling curve with a large enough effect; inconclusive means small, poorly fitted or top-dose-only effect; inactive means no such curve, though single readings can be large or run the other way; further: nearly all actives have a fitted effect of over 55% in size; overnight with compound
2A firefly = Primary qHTS Assay for Foot and Mouth Disease Virus Antivirals against NCGC Sytravon and CBC Compound Libraries: Firefly Luciferase Signal; HEK cells with a luciferase reporter of 2A StopGo recoding; 120,000 tested, 0.23% active; AID 1745856, 2022; Potency, µM (highest dose often 57.5 µM), for the others: at the top dose signal change, negative = less light; active = well fitted falling curve with a large enough effect; inconclusive = small, poorly fitted or top-dose-only effect; inactive = no such curve, though single readings can be large or run the other way; further: nearly all actives have a fitted effect of over 60% in size; overnight with compound
Active calls of the source: *; u = inconclusive; & = joins results of further samples; [ ] = another dose, or the depositor's remark. On the % scale 0 is the no-effect control and ±100 the full control effect; potency means the concentration at half of the fitted maximal effect.

Results follow in this order: 2A firefly | StopGo RLuc
> COc1ccc(Cl)cc1NC(=O)Cn1ncc2c3ccccc3n(C)c2c1=O
 : -11.8% | -12.1%
> COc1ccccc1CCNC(=O)C(=O)NCC(c1ccco1)S(=O)(=O)c1ccccc1 (stereo not given)
 : -15.9% | 9.3%
> Cc1nc2ccn(Cc3ccco3)c(=O)c2cc1C(=O)N1CCN(c2ccc(F)cc2)CC1
 : -1.1% | -1.3%
> COc1cccc(Cn2nnc3c(=O)[nH]c(C4CCCN(C(=O)c5ccc(C)cc5)C4)nc32)c1 (stereo not given)
 : 3.6% | 284.5%[activator]
> CCOC(=O)c1ccc(NC(=O)C2CC(=O)N(c3ccc(C(C)C)cc3)C2)cc1 (stereo not given)
 : 22.8% | -11.9%
> NCC1CCC(C(=O)Oc2ccc(CCC(=O)O)cc2)CC1 (stereo not given)
 : -23.9%[11.5 µM] | -7.5%
> O=C(CSc1nc2c(c(=O)[nH]1)CCCC2)Nc1ccccc1C(F)(F)F
 : -5.9% | -13.0%
> CCCN1C(=O)c2[nH]nc(-c3ccccc3O)c2C1c1ccc(OCc2ccccc2)c(OC)c1 (stereo not given)
 : -1.8% | 8.8%
> Cc1ccc(NC(=O)C2CCCN(S(=O)(=O)c3ccc4[nH]c(=O)oc4c3)C2)cc1N(C)C (stereo not given)
 : -13.0% | -18.6%
> CC(C)CC1NC(=O)N(Cc2coc(-c3ccccc3)n2)C1=O (stereo not given)
 : 8.7% | -22.2%
> O=C(OC1CCOC1=O)c1ccccc1SC1CCOC1=O (stereo not given)
 : 23.5% | 8.0%
> CCN(CC)S(=O)(=O)c1cccc(C(=O)N(C)Cc2cccs2)c1
 : 17.6% | -9.3%
> COc1cc2ncn(CCC(=O)N3CCN(c4cccc(Cl)c4)CC3)c(=O)c2cc1OC
 : 5.1% | -4.3%
> Cc1ccc(C(=O)/C=C/c2ccc(C(C)C)cc2)cc1[N+](=O)[O-]
 : 9.4% | -20.6%
> CN(C)CCCNC(=O)C(=O)NCC(c1ccc2c(c1)OCO2)N1CCOCC1 (stereo not given)
 : -19.2% | -5.2%
> COc1ccc2cc(C(=O)NCC(=O)NC3CC3)c(C)nc2c1
 : 0.0% | 5.1%
> COC(=O)c1scc(-c2ccc(C)cc2)c1S(=O)(=O)Nc1cccc(Cl)c1C
 : 1.1% | 182.9%[activator]
> CC(=O)c1ccc(NC(=O)C2(c3ccc(Br)cc3)CCCC2)cc1
 : 3.1% | 2.0%
> Cc1ccc(S(=O)(=O)NCC2CCC(C(=O)NCCc3ccc(Cl)cc3)CC2)cc1 (stereo not given)
 : -25.8% | -4.4%
> Cc1cc(Cl)ccc1OC(=O)c1cc2ccccc2oc1=O
 : 173.9%[activator] | 26.5%
> O=C(CCl)NCCC12CC3CC(CC(C3)C1)C2
 : u | 10.9%[1.06 µM]
> CCc1cccc2c(C(=O)Cn3cc(S(=O)(=O)N(CC)CC)ccc3=O)c[nH]c12
 : -1.5% | 3.9%
> CCOc1ccc(C2CC(=O)n3nc(-c4ccc(C)cc4)nc3S2)cc1OC (stereo not given)
 : 11.0% | -10.8%
> Cc1cc(N2CCN(C(C(=O)O)c3c[nH]c4ccccc34)CC2)nc2ccccc12 (stereo not given)
 : -14.1% | -12.9%
> Cc1ccc(NC2(c3nnnn3-c3c(C)cccc3C)CCCC2)cc1
 : 5.3% | 65.1%[activator]
> Cn1nc(C(=O)OCCOc2ccccc2F)c2ccccc2c1=O
 : 12.0% | 0.1%
> CC1CCCN(CC(=O)Nc2oc3ccccc3c(=O)c2-c2ccccc2)C1 (stereo not given)
 : 17.8% | 20.6%
> Nc1c(C(=O)NCc2ccc3c(c2)OCO3)nnn1CC(=O)Nc1ccc(Br)cc1
 : 36.5%[activator] | 5.7%
> O=C(CSc1nnc(-c2ccc(Cl)cc2)o1)Nc1ccc(F)cc1
 : 208.2%[activator] | 10.7%
> COc1ccc(NC(=O)N2CCOc3ccc(Cl)cc32)cc1
 : 66.9%[activator] | 2.0%
> COc1ccc(-c2oc3ncn4nc(-c5cccc(C)c5)nc4c3c2-c2ccc(OC)cc2)cc1
 : -1.3% | -14.5%
> CC(CCc1ccccc1)NC(=O)c1ncc(Cl)c(Cl)c1Cl (stereo not given)
 : -2.1% | 3.2%[1.06 µM]
> Cc1cccc(C(=O)NC(C)C(=O)OCc2cc(=O)oc3cc(O)ccc23)c1 (stereo not given)
 : -3.3% | -5.1%
> NC(=O)NNC(=S)NC12CC3CC(CC(C3)C1)C2
 : -4.5% | 1.3%
> CCc1oc2ccccc2c1C(=O)c1cc(I)c(O)c(I)c1
 : -8.6% | -11.2%
> CCOc1ccccc1OCC(=O)Nc1cccc2cccnc12
 : 18.5% | 6.1%
> O=C(CC1(C(=O)O)CCCCC1)Nc1ccc(NS(=O)(=O)c2ccc(F)cc2)cc1
 : 6.2% | 4.6%
> Nc1nc(N2CCN(Cc3ccc(Cl)cc3Cl)CC2)c2[nH]cnc2n1
 : u | u
> Cc1nc(N2C(=O)c3oc4ccccc4c(=O)c3C2c2ccccc2F)sc1C (stereo not given)
 : -6.4% | 1.4%
> COc1ccccc1CNC(=O)CSc1nnc2ccc(-c3ccc4c(c3)OCO4)nn12
 : 30.0%[activator] | 33.1%[activator]
> Cc1cccc(-c2nc3cc(NC(=O)c4ccc(OCC(C)C)cc4)ccc3o2)c1
 : 14.2% | 18.3%
> CCC(Oc1ccccc1)C(=O)Nc1ccc(OCc2cc(=O)n3ccccc3n2)cc1 (stereo not given)
 : 11.7% | 13.5%
> COc1ccc2ccc(OCc3cccc(C#N)c3)cc2c1
 : 0.0% | 0.0%
> O=C(NC1CCCc2ccccc21)c1ncc(Cl)c(Cl)c1Cl (stereo not given)
 : 3.9% | -1.5%
> O=C(CCCN1CCN(c2ccccn2)CC1)c1ccc(F)cc1
 : -0.1%[11.5 µM] | -0.6%
> CCCn1nc(C(=O)Nc2ccc(S(=O)(=O)C(F)F)cc2)c2ccccc2c1=O
 : u | u
> Cc1cccc(N(C)S(=O)(=O)c2cc3[nH]c(=O)c(=O)[nH]c3cc2C)c1
 : -12.9% | -12.2%
> COc1ccccc1NC(=O)C(C)N(C)Cc1ccccc1N1CCCCC1 (stereo not given)
 : 0.1% | 2.3%
> Oc1cccc(/C=C/c2nc3cc(Cl)ccc3o2)c1
 : 208.7%[activator] | 9.7%
> Cc1c(C(=O)N(CCC#N)c2ccccc2)sc2nc3n(c(=O)c12)CCCC3
 : -7.5% | -4.6%
> CCC(CC)C(=O)Nc1nnc(SCc2cc(=O)c3ccccc3[nH]2)s1
 : 12.6µM* | 8.91µM*
> CC(=O)N(Cc1cccnc1)c1nc2c(C)cc(C)cc2s1
 : 26.5% | 7.3%
> CC(C)(C)c1ccc(C(=O)N2CCC(c3nc(-c4ccc(S(=O)(=O)N5CCCC5)cc4)no3)CC2)cc1
 : -18.2% | -12.0%
> CCCCN(CCCC)C(=O)c1cc2c(=O)n3ccccc3nc2s1
 : -5.1% | -0.2%
> Cc1cc(C)c(C(N)C(=O)O)cc1C (stereo not given)
 : 22.5% | 6.0%
> COc1cccc(CNC(=O)c2cccc(-n3c(C)nc4cccnc43)c2C)c1
 : -9.1% | -9.9%
> Cc1ccccc1NC(=O)CN1C(=O)C(C)(C)c2ccccc21
 : -19.9% | 2.1%
> Cc1cc(C)cc(NC(=O)CCc2c(C)nc3nc(CNC(=O)c4cccc(F)c4)nn3c2C)c1
 : -3.6% | 5.3%
> Cc1ccc(-n2c(SCc3nc(-c4ccccc4C)no3)nnc2-c2ccncc2)cc1C
 : 3.6% | 6.6%
> CC(C)(C)c1ccc(S(=O)(=O)Nc2ccc(O)c(Sc3nc4ccccc4s3)c2)cc1
 : -9.0% | -10.0%

Following part:
Results follow in this order: 2A firefly | StopGo RLuc
> Cc1cccc(CN2C(=O)c3ccccc3S(=O)(=O)c3ccc(C(=O)N(C)Cc4ccccc4)cc32)c1
 : -24.8% | 146.7%[activator]
> COC(=O)c1ccccc1NC(=O)CCCn1nc(C)c2sc3ccccc3c2c1=O
 : -22.9% | -8.4%
> CCOc1ccc(CCNC(=O)c2cc3c(-c4cccc(OC)c4)nn(C)c3s2)cc1OCC
 : u | u
> O=S(=O)(NC(c1ccccc1)C1CC1)c1cccs1 (stereo not given)
 : -2.7% | 27.6%
> COc1cc(Cn2c(=O)oc3ccc(C)cc32)ccc1OCCC(C)C
 : 21.2% | -4.3%
> CCOC(=O)N1CCN(S(=O)(=O)c2ccc(OCC)c(C)c2)CC1
 : 23.5% | 1.9%
> COc1ccc(/C=C\c2onc(C)c2S(=O)(=O)N2CCC(C(=O)Nc3cccc(Cl)c3)CC2)cc1
 : -30.2% | -24.0%
> COc1ccc(S(=O)(=O)NCCc2csc(-c3cccc(F)c3)n2)cc1OC
 : u | 119.9%[activator]
> COc1ccc2c(CNC3CCCCCC3)c(C(=O)O)n(Cc3ccc(C)cc3)c2c1
 : -12.6% | 58.1%[activator]
> Cc1cc(C)c2c(=O)cc(C(=O)Nc3cccnc3)oc2c1
 : 18.1% | 11.4%
> CCOc1ccc(-c2nonc2NC(=O)c2oc3ccc(Cl)cc3c2C)cc1
 : -2.6% | 45.8%[activator]
> N#C/C(=C1/SC[C@@H](c2ccc(Cl)cc2Cl)S1)n1ccnc1
 : u | u
> Cc1ccc(OCc2nc(-c3ccc(C(=O)NCCc4ccc(S(N)(=O)=O)cc4)cc3)oc2C)cc1
 : 3.0% | 1.3%
> CCS(=O)(=O)N1CCc2cc(C(=O)CSc3nnc(C)n3C3CC3)ccc21
 : -1.9% | -7.2%
> O=C(CSc1nccn1Cc1ccccc1)Nc1ccc2c(c1)OCO2
 : 41.5% | 61.9%[activator]
> COc1ccc(-n2cc(-c3ccccc3)nc2SCC(=O)Nc2ccccc2)cc1Cl
 : 2.6% | 2.8%
> COc1ccc(-c2nnc(C3CCN(S(=O)(=O)c4ccc(C)c(C)c4)CC3)o2)cc1
 : 8.1% | 8.1%
> COc1ccccc1CNC(=O)c1ccc(C)c(-n2cnc3cccnc32)c1
 : -13.6% | 2.9%
> O/N=C/C(Cl)=C(Sc1ccc(Cl)cc1)Sc1ccc(Cl)cc1
 : -24.3% | -2.3%[1.06 µM]
> CCOc1ccc(-c2cc(C(=O)NC(C)C)c3ccccc3n2)cc1
 : 0.0% | 0.3%
> CSc1nc2ccccc2c(=O)n1CC(=O)c1ccc(C)cc1
 : u | 19.8%
> C=C(C)COc1cccc(C(=O)Nc2ccccc2)c1
 : 173.5%[activator] | -13.6%
> CCOc1ccc2nc(N3CCCC(C(=O)Nc4ccc(Br)c(C)c4)C3)sc2c1 (stereo not given)
 : -28.6% | -10.2%
> CCOc1ccc(-c2nnc(SCc3nc4ccccc4o3)o2)cc1
 : 20.1% | -0.7%
> CC1=NN(c2nc(C)cc(C)n2)C(=O)C1Cc1ccc(Br)cc1 (stereo not given)
 : 222.4%[activator] | -1.7%
> CCc1ccc(-c2nn(C)c(=O)c3c2CCCC3)cc1S(=O)(=O)Nc1cccc(C(C)=O)c1
 : 14.2% | 171.4%[activator]
> Cc1ccccc1-c1nc(CN2C(=O)CSc3ccc(S(=O)(=O)N4CCCC4)cc32)c(C)o1
 : 4.4% | -0.9%
> CSc1cccc(N=Cc2cc(Cl)ccc2O)c1
 : 0.0% | 0.3%
> CCOC(=O)/C(C#N)=C/c1cccnc1
 : 10.7% | -1.6%
> COc1ccc(CNC(=O)c2nc(Cn3nc(C)c(Br)c3C)no2)cc1OC
 : 6.0% | -8.0%
> COc1ccc(-n2nc(C(=O)NCc3ccc(F)cc3Cl)c3c4ccccc4n(C)c3c2=O)cc1Cl
 : -14.6% | -9.7%
> Cn1cc(C(=O)N2CCN(S(=O)(=O)c3cccc(Br)c3)CC2)c2ccccc21
 : -19.3% | 75.8%[activator]
> Cc1cc(/C=C(\C#N)C(=O)Nc2ccccc2)c(C)n1-c1ccc(F)cc1
 : 64.7%[activator] | 6.5%
> Cc1ccccc1-c1noc(CCC(=O)Nc2cccc(C)c2C)n1
 : -15.1% | -1.6%
> O=C(Cc1c[nH]c2ccccc12)Nc1cccc(F)c1
 : 67.4%[activator] | 61.3%[activator]
> CCOC(=O)CNC(=O)Nc1cc(C(=O)NCc2ccc(C(C)C)cc2)ccc1N1CCCC1
 : 47.8%&-1.0% | 11.2%&-4.5%
> Cc1c(C(=O)c2ccccc2)oc2ccc(N)cc12
 : 123.9%[activator] | 25.9%
> COc1ccc(C(=O)Oc2cccc(C)c2C)cc1Br
 : 0.0% | 3.5%
> O=C1c2ccccc2S(=O)(=O)N1CCCCN1CCN(c2ncccn2)CC1
 : -12.0% | -6.0%
> O=C(O)CC(C(=O)O)c1ccc(OCCCOc2ccc(C(CC(=O)O)C(=O)O)cc2)cc1 (stereo not given)
 : -5.8% | -4.8%
> Cc1ccc2nc(C)c(Cc3nnc(SCC(=O)Nc4cccc(Cl)c4C)n3C)c(=O)n2c1
 : -5.9% | -14.8%
> CCCn1c(=O)[nH]c(=O)c2c1nc(-c1cccc(C)c1)n2CCN1CCOCC1
 : 32.8%[activator] | 19.2%
> Clc1ccccc1CNCCN1CCCC1
 : 4.0% | -9.6%
> COC(=O)c1ccc(/C=N/NC(=O)C2CC2)cc1
 : 120.3%[activator] | -1.9%
> COC(=O)c1ccc(COC(=O)c2cc3c(s2)CCC3)o1
 : 10.4% | -2.5%[1.06 µM]

Profiles, looked up by structure. Values in the order: 2A firefly	StopGo RLuc
`COc1ccc(C(=O)Oc2cccc(C)c2C)cc1Br` as listed: 0.0%	3.5%
`O=C1c2ccccc2S(=O)(=O)N1CCCCN1CCN(c2ncccn2)CC1` as listed: -12.0%	-6.0%

Rows were taken by chance, and some 0.53% of all compounds hit somewhere here.
